Screens from PubChem BioAssay.
GLA inh pH 4.5 = inhibitors of human alpha-galactosidase A at pH 4.5; purified enzyme, 4-MU-alpha-Gal fluorescence, pH 4.5; activity change, negative = inhibition, % at 105 µM; 230,000 tested, under 10 active; inconclusive = small, poorly fitted or top-dose-only inhibition, or a rising curve; inactive = flat fitted curve, though single readings scatter; no compound was filed as active;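 also: 0% = full activity with enzyme and -100% = basal without enzyme; dose as in the result columns while the protocol names 77 µM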
Rango complex inh = inhibitors of Rango-importin beta complex formation; Rango CFP/YFP FRET sensor + importin beta, 45 min; Potency, µM (doses to about 92.2 µM), for the others: at the highest dose inhibition of complex formation; AID 540263; 0.031% of 340,000 active; Q14974; active = rising FRET ratio curve, often small or poorly fitted; inconclusive = mostly compound fluorescence or quenching in the first reads; inactive = flat curves in all reads;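 also: potency is read from the fitted curve at half-maximal effect; 0% = DMSO wells and 100% = buffer wells lacking importin beta; nearly all actives have a fitted effect of over 15% in size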
Target sequence (Q14974 whole entry, looked up): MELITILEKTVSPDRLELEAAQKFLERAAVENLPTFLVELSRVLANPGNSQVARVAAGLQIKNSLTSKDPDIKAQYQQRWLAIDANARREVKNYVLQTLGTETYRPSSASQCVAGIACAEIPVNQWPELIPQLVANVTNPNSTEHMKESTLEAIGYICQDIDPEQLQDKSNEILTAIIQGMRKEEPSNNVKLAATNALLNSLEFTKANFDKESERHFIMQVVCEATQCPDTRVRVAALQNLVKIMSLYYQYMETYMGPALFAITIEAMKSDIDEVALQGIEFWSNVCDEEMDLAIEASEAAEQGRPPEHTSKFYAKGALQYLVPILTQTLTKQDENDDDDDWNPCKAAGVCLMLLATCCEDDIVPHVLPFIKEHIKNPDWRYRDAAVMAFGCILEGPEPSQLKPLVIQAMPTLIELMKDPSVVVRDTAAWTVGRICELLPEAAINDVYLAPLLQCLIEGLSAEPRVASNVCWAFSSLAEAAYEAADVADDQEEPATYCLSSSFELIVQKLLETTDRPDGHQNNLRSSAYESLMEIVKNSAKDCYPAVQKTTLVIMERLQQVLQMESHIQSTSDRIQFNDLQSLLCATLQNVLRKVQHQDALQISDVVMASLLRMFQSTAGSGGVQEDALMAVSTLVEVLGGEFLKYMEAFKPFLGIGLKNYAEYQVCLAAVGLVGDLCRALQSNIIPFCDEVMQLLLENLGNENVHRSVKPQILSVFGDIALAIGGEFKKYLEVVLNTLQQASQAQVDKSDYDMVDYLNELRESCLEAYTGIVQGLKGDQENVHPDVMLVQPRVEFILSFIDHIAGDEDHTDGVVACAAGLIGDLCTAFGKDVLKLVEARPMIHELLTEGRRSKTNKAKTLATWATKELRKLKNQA
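FRET biosensor (snurportin 1 IBB flanked by EYFP and cerulean), 50 nM, with compound 5 min, then 0.125 microM importin beta in PBS, 1 mM DTT, 0.02% Tween-20, 0.1% BSA. CFP/YFP ratio read after 45 min at room temperature; pre-read flags interference.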
miR-21 reporter = miR-21 reporter, rising signal | HeLa miR-21 FLuc reporter, luciferase, 48 h | Potency, µM (top dose mostly 38.3 µM), inactives show at the highest dose reporter change, positive = more light | 340,000 tested, under 10 active | AID 2288; active = well fitted rising curve with a large enough effect; inconclusive = small, poorly fitted or top-dose-only effect; inactive = no such curve, though single readings can be large or run the other way;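 also: % of control where 0% means no effect; miR-21 action dims this reporter so a rising signal means less miR-21 action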
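Using DMEM plus 10% FBS, HeLa miR-21-FLuc cells are incubated with test compounds (final up to about 40uM) for 48 hours; firefly luciferase signal is then imaged following reagent-mediated lysis.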
Rango release inh = inhibition of RanGTP-driven Rango-importin beta dissociation; Biochemical FRET Rango-importin beta, RanGTP-induced dissociation; Potency, µM (doses to about 46.1 µM), inactives show at the top dose activity change, negative = inhibition; 0.071% of 340,000 active; active means falling FRET ratio curve, often poorly fitted, with flat reads before Ran was added; inconclusive means other falling curves, or compound fluorescence or quenching; inactive means flat or rising ratio curve;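 also: potency is read from the fitted curve at half-maximal effect; % of control where 0% means no effect; nearly all actives have a fitted effect of over 45% in size; -100% = wells without RanGTP and RCC1; the record marks most hits as doubtful in a second field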
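Rango/importin beta premix (0.1/0.25 uM final), PBS + 1 mM DTT + 0.02% Tween-20 + 0.1% BSA; cpd 5 min RT; FRET pre-read; + RanGTP-RCC1 (0.6 uM Ran, 2 mM GTP, 0.2 uM RCC1); 45 min RT; FRET post-read, ex 430, em 486/530 nm.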
Starred values were filed as active, the others as inactive; ? = inconclusive; . = no result given. These rows are one share of the data, so the mix of outcomes need not match the whole.

GLA inh pH 4.5	Rango complex inh	miR-21 reporter	Molecule	Rango release inh
3	1.3%	11%	CC(C)n1nc(C(=O)Nc2cccc(S(=O)(=O)NCc3ccco3)c2)c2ccccc2c1=O	-4%
.	-2.7%	.	Nc1nc(=S)c2ncn([C@@H]3O[C@H](CO)[C@@H](O)[C@H]3O)c2[nH]1	-8%
.	1.3%	0%	O=C(C1CC(=O)N(c2ccc(F)cc2)C1)N1CCN(c2ccccc2)CC1 (centres undefined)	3%
5	-4.8%	-3%	CN(C)S(=O)(=O)c1ccc(C(=O)Nc2nnc(Cc3ccccc3)s2)cc1	-14%
.	52µM*	8%	Oc1ccc2ccccc2c1-c1sc(Nc2ccccc2)n[n+]1-c1ccc(F)cc1	1%
.	-0.2%	-6%	O=C(CNC(=O)C12CC3CC(CC(C3)C1)C2)N/N=C\c1ccco1	-3%
8	-0.2%	6%	C[C@H](O)[C@@H](C(=O)N1CCN(C(=O)OC(C)(C)C)CC1)n1cc(CCCCNC(=O)OC(C)(C)C)nn1	-8%
.	-0.1%	-12%	OCCCNc1ncnc2c1cnn2-c1ccc(Cl)cc1	5%
0	0.2%	-26%	Cc1cccc(Cn2c(N3CCCCC3C)nc3c2c(=O)[nH]c(=O)n3C)c1 (centres undefined)	0%
.	2.5%	1%	Cc1cnc(C(=O)OCc2csc(CC(=O)Nc3ccccc3C)n2)cn1	-7%
0	-0.3%	-29%	Cc1ccc(NC(=O)Nc2cc(S(=O)(=O)N(C)C)ccc2C)cc1	11%
-5	-1.9%	-6%	CC(=O)N1CCN(CC(=O)Nc2ccc(Cl)c(S(=O)(=O)N(C)C)c2)CC1	0%
-7	0.9%	-6%	COc1ccccc1N1CCN(C(=O)c2ccc([N+](=O)[O-])s2)CC1	-14%
5	0.1%	-17%	CC1CCCN(C(=O)c2sc3cc([N+](=O)[O-])ccc3c2Cl)C1 (centres undefined)	3%
.	-0.5%	-7%	COc1ccc(CCNC(=S)NC(=O)c2cccc([N+](=O)[O-])c2)cc1OC	1%
1	-0.9%	-11%	O=C(CN(C(=O)CCC(=O)Nc1ccccn1)c1ccc2c(c1)OCCO2)NCCc1ccccc1	7%
4	-0.6%	1%	Cc1ccc(OCCCC(=O)Nc2nc3ccccc3[nH]2)cc1	-11%
4	-1.0%	-10%	Cc1onc(-c2ccccc2Cl)c1C(=O)Nc1ccc2c(c1)OCO2	-5%
.	1.4%	-38%	Nc1ccc(-c2nc3ncccc3o2)c(Cl)c1	3%
.	-1.3%	-25%	O=C(NC(=S)Nc1cccc([N+](=O)[O-])c1)C1CCCC1	-10%
.	1.0%	.	Cc1ccc2sc(N3CCN(C(=O)C4=COCCO4)CC3)nc2c1C	-7%
-1	6.2%	-13%	Cc1cc(NC(=O)Nc2cccc(C)c2C)no1	-12%
.	?	2%	COc1cccc(N=Cc2c(O)c3ccccc3oc2=O)c1	?
-14	?	6%	COCCNC(=O)c1cc2c(-c3ccc(Cl)cc3)nn(C)c2s1	16%
0	-0.1%	-2%	O=C(Cc1c[nH]c2ccccc12)NC1(C(=O)NC2CCCCC2)CCCCC1	38%
.	0.0%	0%	Cc1c(Cl)cccc1NC(=O)CCN1CCOCC1	-13%
0	11%	-14%	O=C(Oc1ccccc1N1C(=O)C2CCCCC2C1=O)c1ccc(Cl)cc1 (centres undefined)	-8%
.	1.2%	.	COc1cc(C(C)=O)ccc1OCC(=O)NCC(c1ccc(F)cc1)N1CCOCC1 (centres undefined)	-2%
.	-2.2%	-6%	NCC(c1ccco1)c1c[nH]c2ccccc12 (centres undefined)	-12%
.	-0.4%	.	CN(CC(=O)Nc1ccccc1C(=O)NC1CC1)Cc1ccc(N(C)C)cc1	-5%
-1	-0.8%	-3%	COc1ccc(NS(=O)(=O)c2ccc(NC(=S)NC(=O)c3cccnc3)cc2)nn1	11%
.	-0.5%	.	Cc1cc(C)c(-c2csc(NC(=O)C3=COCCO3)n2)c(C)c1	2%
-1	-0.2%	3%	CS(=O)(=O)c1ccc2nc(NC(=O)c3ccc(NS(=O)(=O)c4ccc(F)c(F)c4)cc3)sc2c1	-1%
-2	-2.9%	1%	Cc1oc(-c2ccccc2Cl)nc1CN(Cc1ccccn1)C[C@@H]1CCC(=O)N1	6%
.	5.3%	1%	Nc1nonc1-n1nnc(C(=O)N/N=C/c2cccnc2)c1CSc1ccccc1	7%
.	0.5%	0%	CC(C)(C)c1cc(CCC(=O)NCc2cccnc2)cc(C(C)(C)C)c1O	?
.	-0.4%	-1%	CCOC(=O)c1c(CN2CCOCC2)oc2ccc(OC(C)=O)cc12	-7%
.	0.1%	.	COc1ccc(Br)cc1C(=O)CCC(=O)OCC(=O)Nc1cc(C(N)=O)cc(C(N)=O)c1	13%
.	0.4%	-3%	Cc1oc(-c2ccccc2F)nc1CS(=O)CC(=O)NC1CC1 (centres undefined)	-1%
.	0.6%	0%	CN1C(=O)[C@H]2[C@@H](C3CC3)N3C(=O)CN(CCO)C(=O)[C@@]3(Cc3ccccc3)[C@H]2C1=O	11%
1	-0.6%	-1%	O=C(CC1(C(=O)O)CCCC1)N1CCOCC1	7%
3	1.8%	-1%	Cc1nn(-c2ccccc2)c2nc(C(F)(F)F)[nH]c(=O)c12	-14%
-10	3.9%	-1%	CS(=O)(=O)c1ccc(N2CCOCC2)c(S(C)(=O)=O)c1	1%
8	-0.1%	-1%	CC(C)(O)C#Cc1ccc(CN2CCN(Cc3ccsc3)C(CCO)C2)cc1 (centres undefined)	-1%
.	-2.5%	.	Cc1ccc(NC(=O)COc2ccc3c(c2)OCO3)c(Cl)c1	3%

Part of the list above, field by field:
O=C(CC1(C(=O)O)CCCC1)N1CCOCC1
  GLA inh pH 4.5: 1
  Rango complex inh: -0.6%
  miR-21 reporter: -1%
  Rango release inh: 7%

COc1ccc(Br)cc1C(=O)CCC(=O)OCC(=O)Nc1cc(C(N)=O)cc(C(N)=O)c1
  GLA inh pH 4.5: .
  Rango complex inh: 0.1%
  miR-21 reporter: .
  Rango release inh: 13%

CC(C)(C)c1cc(CCC(=O)NCc2cccnc2)cc(C(C)(C)C)c1O
  GLA inh pH 4.5: .
  Rango complex inh: 0.5%
  miR-21 reporter: 0%
  Rango release inh: ?

CCOC(=O)c1c(CN2CCOCC2)oc2ccc(OC(C)=O)cc12
  GLA inh pH 4.5: .
  Rango complex inh: -0.4%
  miR-21 reporter: -1%
  Rango release inh: -7%

More entries.
GLA inh pH 4.5	Rango complex inh	miR-21 reporter	Molecule	Rango release inh
.	-2.8%	.	CC(C)(CNC(=O)c1ccc(-c2ccccc2Cl)o1)N1CCOCC1	-15%
-5	?	6%	COc1ccc(C(=O)Oc2ccc(F)cc2C(=O)/C=C/c2ccc(OC)c(OC)c2)cc1	?
1	0.9%	-1%	O=C(c1ccc2c3c(cccc13)CC2)C1CCCN(C(=O)c2cc[n+]([O-])cc2)C1 (centres undefined)	-11%
-2	0.0%	-50%	O=C(Nc1ccccc1C(=O)N/N=C/c1ccc(O)cc1)c1ccccc1	-4%
-9	0.3%	-6%	Cc1ccc(-c2nnn(CCC(=O)NC3CCCC3)n2)cc1	10%
-9	-0.6%	12%	Cc1cc(NC(=O)Cn2nc3c(cc2=O)CCCC3)ccc1Br	-3%
0	3.2%	-1%	Cc1sc(NC(=O)CCC(=O)O)c(C#N)c1C	9%
4	-3.0%	-9%	O=C(COC(=O)c1ccccc1F)c1ccc(-n2nncc2-c2ccco2)cc1	-8%
6	-2.8%	-4%	O=c1oc2c3c(nn2c2ccccc12)CCCC3	-3%
-6	0.6%	2%	CCOC(=O)c1c(CN2CCN(C)CC2)n(-c2ccccc2)c2cc(Br)c(O)cc12	-8%
.	-3.7%	-4%	COc1ccc(N2CCN(C(=O)CCc3nnc4ccc(N5CCCC5)nn34)CC2)cc1	-14%
10	-3.4%	-6%	Cc1cc(C)cc(N2C(=O)CC(N(C(=O)c3ccco3)c3cc(C)cc(C)c3)C2=O)c1 (centres undefined)	-8%
-16	0.5%	-2%	COc1cccc(-n2nnnc2SCC(=O)N2CCCc3ccccc32)c1	8%
.	6.6%	.	CCCCn1cnc2c(SCc3ccccc3Cl)nc(N)nc21	0%
.	-1.2%	.	O=C(NC1CCC(O)CC1)c1ccc(Br)o1 (centres undefined)	9%
-3	2.0%	-13%	CC(C)OCC(O)CSc1ccccn1 (centres undefined)	-7%
1	-4.4%	-9%	COc1ccc(Oc2ccc(S(=O)(=O)N3CCCCC3)cc2S(=O)(=O)N2CCCCC2)cc1	-10%
-29	3.1%	-4%	CC(=O)Nc1n[nH]c(S(=O)(=O)Cc2ccc(Cl)cc2Cl)n1	5%
-8	-3.0%	?	CC#CC[N+](C)(C)CCCCCCCCCCCC	-2%
-20	-4.5%	-11%	Cc1cc(C)cc(NC(=O)NC(C)C2CCCO2)c1 (centres undefined)	3%
.	2.2%	.	O=C(O)c1ccc(OS(=O)(=O)c2ccc(Cl)s2)c(Cl)c1	12%
.	-0.4%	0%	CCc1nnc(NC(=O)CN2CCN(Cc3cccc(Cl)c3)CC2)s1	11%
0	-0.8%	-7%	CN(C(=O)COC(=O)c1cccnc1Nc1cccc(C(F)(F)F)c1)C1CCS(=O)(=O)C1 (centres undefined)	8%
5	-3.1%	-5%	Cc1ccc(S(=O)(=O)CC(O)COc2ccc(C#N)cc2)cc1 (centres undefined)	11%
.	-0.1%	5%	CC1(C)C2CCC1(CS(=O)(=O)NCc1ccc(C(F)(F)F)cc1)C(=O)C2 (centres undefined)	11%
5	-3.9%	?	S=C(NCc1ccccc1)NCc1cccc(CNC(=S)NCc2ccccc2)c1	-14%
.	-1.8%	.	COc1ccc(C(=O)NCCc2ccccn2)cc1S(=O)(=O)Nc1ccc(Br)cc1	-9%

4 of the compounds above, as labelled records:
CCc1nnc(NC(=O)CN2CCN(Cc3cccc(Cl)c3)CC2)s1
  GLA inh pH 4.5 = . | Rango complex inh = -0.4% | miR-21 reporter = 0% | Rango release inh = 11%

CN(C(=O)COC(=O)c1cccnc1Nc1cccc(C(F)(F)F)c1)C1CCS(=O)(=O)C1 (centres undefined)
  GLA inh pH 4.5 = 0 | Rango complex inh = -0.8% | miR-21 reporter = -7% | Rango release inh = 8%

Cc1ccc(S(=O)(=O)CC(O)COc2ccc(C#N)cc2)cc1 (centres undefined)
  GLA inh pH 4.5 = 5 | Rango complex inh = -3.1% | miR-21 reporter = -5% | Rango release inh = 11%

CC1(C)C2CCC1(CS(=O)(=O)NCc1ccc(C(F)(F)F)cc1)C(=O)C2 (centres undefined)
  GLA inh pH 4.5 = . | Rango complex inh = -0.1% | miR-21 reporter = 5% | Rango release inh = 11%
